Compound activity deposited in PubChem BioAssay by several laboratories.
Mtb bLac sens: beta-lactam sensitization of Mtb H37Rv | M. tuberculosis H37Rv growth with meropenem, percent inhibition; hits of this screen are not shown here | inhibition, % at 25 µM | 0.27% of 330,000 active;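 active = about 74% or more and at least 40 points above the plate without the antibiotic, then above 30% in a dose series; inconclusive = first-round hits that could not be retested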;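 note: growth measured after seven days incubation then overnight dye step; 0% = bacteria only wells and 100% = bacteria with antibiotic; twin plates without the antibiotic show which effects depend on it; some results filed as inactive read as strong as hits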
RecA intein inh: blocks M. tuberculosis RecA intein splicing | P9WHJ3 | cell-free RecA intein splicing, fluorescence | inhibition, %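 (about 9 µM by stock and volumes)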 | 0.75% of 290,000 active | AID 2221; in the data active = inhibition above about 30%; inconclusive = no clear call, values can overlap the other calls;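 note: 0% = vehicle wells and 100% = reference inhibitor control wells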
Target sequence (P9WHJ3 whole entry, looked up): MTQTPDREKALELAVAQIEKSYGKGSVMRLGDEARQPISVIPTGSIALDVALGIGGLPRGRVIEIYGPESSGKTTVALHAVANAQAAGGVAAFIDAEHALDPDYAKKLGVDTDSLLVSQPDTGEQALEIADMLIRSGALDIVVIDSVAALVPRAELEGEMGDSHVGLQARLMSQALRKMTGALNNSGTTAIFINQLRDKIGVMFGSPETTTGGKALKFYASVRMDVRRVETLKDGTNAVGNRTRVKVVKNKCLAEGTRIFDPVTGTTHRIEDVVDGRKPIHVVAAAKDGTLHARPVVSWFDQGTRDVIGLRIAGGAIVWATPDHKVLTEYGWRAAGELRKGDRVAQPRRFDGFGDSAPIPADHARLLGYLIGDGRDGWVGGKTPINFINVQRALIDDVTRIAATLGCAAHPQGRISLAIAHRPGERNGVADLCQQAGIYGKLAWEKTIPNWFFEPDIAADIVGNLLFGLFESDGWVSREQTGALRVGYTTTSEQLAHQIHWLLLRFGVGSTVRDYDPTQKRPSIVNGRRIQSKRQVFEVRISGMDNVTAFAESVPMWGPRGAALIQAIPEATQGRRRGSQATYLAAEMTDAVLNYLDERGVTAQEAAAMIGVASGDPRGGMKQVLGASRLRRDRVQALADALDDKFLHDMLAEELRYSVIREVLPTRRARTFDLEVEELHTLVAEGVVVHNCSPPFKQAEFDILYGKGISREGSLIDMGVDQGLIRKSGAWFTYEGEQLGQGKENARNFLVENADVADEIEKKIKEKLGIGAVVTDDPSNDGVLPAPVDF
Mtb H37Rv: M. tuberculosis H37Rv growth inhibitors, H37Rv strain (AID 1626); M. tuberculosis H37Rv growth inhibition; higher % means a stronger effect; inhibition, % at 10 µM; hits with a dose series show IC50 in µM; 0.95% of 220,000 active;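 active = confirmed in a dose series; inconclusive = inhibition above 80% but not taken into the dose series; inactive = below 80% or under 30% at every dose of the series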;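 note: bacteria incubated seven days before Alamar blue readout; 0% = bacteria only wells and 100% = bacteria with antibiotic wells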
Arbovirus anti: antivirals against arbovirus infection | 0.37% of 200,000 active | inhibition, % at 10 µM | arbovirus infection cell-based antiviral screen;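 active = inhibition from about 30%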;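 note: bluetongue infection of BSR cells; cell survival read as ATP light after 72 h; 0% = infected wells without compound and 100% = uninfected wells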
YopH inh: YopH (Yersinia) phosphatase inhibition; fluorescence Ex485/Em525; inhibition, %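 (about 10 µM by stock and volumes)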; 0.16% of 140,000 active;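 active = inhibition of 50% or more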;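 note: controls were vehicle for no effect and minimum signal wells for full effect; inactives centre near -20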
* hit, by the source's call; u = inconclusive; x = no result given.

Under each structure – Mtb bLac sens | RecA intein inh | Mtb H37Rv | Arbovirus anti | YopH inh
CN(C)CCNC(=O)NC1CCCCC1
 : -3 | 0.2 | -10% | 10 | -41
CCOC(=O)c1sc(NC(=O)CSc2nc(C)cc(C)n2)c(C#N)c1C
 : -18 | -0.1 | 3% | -1 | -15
CCN(CC(=O)NCc1cccs1)C(=O)CCC(=O)c1ccc(C)cc1
 : 1 | 1.2 | x | x | x
COc1ccccc1C(=O)Oc1ccc(N2C(=O)CCC2=O)cc1
 : -5 | 1.5 | x | 4 | -10
Nc1ccc(NC(=O)CCN2CCOCC2)cc1
 : -3 | 7.5 | x | x | x
CCCCN(Cc1ccccc1)S(=O)(=O)c1c(N)n(C)c(=O)n(C)c1=O
 : -6 | -2.1 | x | x | x
CNC(=S)N1N=C(c2ccc(Br)cc2)CC1c1ccc(OC)cc1 (configuration not stated)
 : 11 | 15 | 8% | 8 | -45
COC(=O)C1=C(C)N(CCCC(=O)O)C(=O)NC1c1cccs1 (configuration not stated)
 : 10 | -1.0 | -6% | 6 | -12
N#C/C(=C\c1cc(Cl)c(OCc2ccc(Cl)cc2)c(Cl)c1)C(N)=O
 : 19 | 44* | 15% | x | x
COc1ccc(CCNC(=O)CSc2n[nH]c(N)n2)cc1OC
 : -4 | -1.2 | x | x | x
O=C(CSc1ccc2nnc(-c3ccccn3)n2n1)NCC1CCCO1 (configuration not stated)
 : -4 | -0.5 | -4% | -3 | -33
NC(=O)C(c1ccc(Cl)cc1Cl)c1ncc(C(F)(F)F)cc1Cl (configuration not stated)
 : 2 | 0.4 | 6% | -4 | -32
Cc1ccc(/C=C/C(=O)Nc2ccccc2C(N)=O)cc1
 : -7 | -2.9 | 5% | -19 | -13
O=C(O)c1ccc(CSc2nnc(-c3ccccc3)n2-c2ccccc2)cc1
 : -8 | 2.8 | 12% | x | x
Cc1nn(-c2ccc(F)cc2)c(Cl)c1C(=O)N(C)CC(=O)Nc1cccc(F)c1
 : -6 | 1.8 | x | x | x
CCC(CC)NC(=O)C1CC(=O)N(CCc2ccc(F)cc2)C1 (configuration not stated)
 : -3 | -2.6 | x | x | x
Cc1ccc(C(=O)c2c[nH]c(C(=O)NCCCN3CCOCC3)c2)cc1
 : -14 | -0.7 | -2% | 2 | -22
O=C(COc1ccccc1Cl)NCCNC(=O)c1ccccn1
 : 0 | -4.9 | x | x | x
Cc1ccc(NC(=O)CS(=O)CC(=O)Nc2cnc3ccccc3c2)cc1Cl (configuration not stated)
 : 59 | 3.7 | x | x | x
O=C(CCCOc1ccc(Cl)cc1Cl)Nc1ncccn1
 : -6 | 0.7 | -7% | x | x
CCC(C)C(NC(=O)c1ccccc1NC(=O)c1ccc(OC)cc1)C(=O)NCCCn1ccnc1 (configuration not stated)
 : 0 | 1.7 | x | x | x
COC(=O)[C@H](C)NC(=O)NCc1ccccc1F
 : -11 | 0.8 | 17% | -6 | -28
COc1ccc(CN2CCNC(=O)C2CC(=O)NCCCC2CCCC2)c(F)c1 (configuration not stated)
 : -13 | 5.1 | x | x | x
COC(=O)C(Cc1c[nH]c2ccccc12)NC(=O)c1cccs1 (configuration not stated)
 : -7 | 1.7 | -8% | x | x
COc1ccc(N2CCN(C(=S)Nc3ccccc3)CC2)cc1
 : 0 | -2.7 | x | x | x
CC(CNC(=O)c1ccco1)NC(=O)c1ccco1 (configuration not stated)
 : 4 | -0.5 | x | x | x
COc1cc(Cl)c(S(=O)(=O)NCc2ccccn2)cc1Cl
 : 0 | 0.1 | -6% | 3 | -16
Cc1cc(C)c(C(CC(=O)c2cccs2)C(C#N)C#N)c(C)c1 (configuration not stated)
 : 16 | 83* | 3% | -33 | -25
COc1cc(C2NC(=O)N(C)C(C)=C2C(=O)OCc2ccccc2)cc(Br)c1O (configuration not stated)
 : -1 | 8.3 | x | x | x
COc1cc(NC(=S)NCCCN2CCOCC2)cc(OC)c1OC
 : 4 | -2.1 | 6% | 0 | x
COc1ccc(/C=C/C(=O)c2c(O)ccc3c(C)cc(=O)oc23)cc1
 : 75 | 2.0 | 17% | 10 | -17
OC(c1cc(-c2ccc(C(F)(F)F)cc2)nc(C(F)(F)F)c1)C1CCCCN1 (configuration not stated)
 : 100 | -1.7 | u | x | x
CCOc1ncccc1C(=O)OCc1ccc(C(=O)OC)cc1
 : 82 | 4.2 | 13% | -3 | -17
NC(=O)C1CCN(C(=O)CC(c2ccccc2)c2ccccc2)CC1
 : -9 | 0.1 | x | x | x
O=C(Nc1ccccc1)c1ccc(-c2ccccc2)s1
 : -1 | -1.0 | 7% | -5 | x
COC(=O)c1c(NC(=O)CSc2nncs2)sc2c1CCCCC2
 : 1 | 2.6 | 1% | 1 | -11
O=C(NCCn1cccc1)c1cccc2ccccc12
 : 6 | -1.5 | -5% | 9 | 1
O=C(NCCN1CCN(c2ccccc2)CC1)Nc1ccc(Cl)cc1
 : 0 | 1.1 | x | x | x
CS(=O)(=O)NCCCCNc1ccc(C(F)(F)F)cc1[N+](=O)[O-]
 : 7 | -0.4 | -14% | 2 | x
O=C(Nc1cccnc1)c1cc(-c2ccccc2O)on1
 : 2 | -1.2 | x | x | x
Cc1[nH]n(-c2ccccc2)c(=O)c1C(C[N+](=O)[O-])c1ccc(Cl)cc1 (configuration not stated)
 : 100 | 82* | u | -9 | 76*
COc1ccc(/C=C2/Sc3ccc(C(=O)N4CCc5ccccc5C4)cc3NC2=O)cc1
 : 97 | -3.2 | 20µM* | -18 | -13
Cc1ccccc1NC(=O)NC(C)(C)CC(C)(C)C
 : -6 | -0.9 | -4% | -2 | x
CCOC(=O)COn1c(=O)c(-c2ccc(C)cc2)[n+]([O-])c2ccccc21
 : 1 | -1.8 | x | x | x
C/C(=C\c1ccco1)C1C(C#N)=C(N)Oc2n[nH]c(-c3ccccc3)c21 (configuration not stated)
 : -1 | 77* | -5% | -9 | -47
CC(COS(N)(=O)=O)Cc1ccc(C(F)(F)F)cc1 (configuration not stated)
 : 1 | -0.5 | x | x | x
CC(OC(=O)CNC(=O)c1ccc(Cl)c([N+](=O)[O-])c1)C(=O)NCc1ccco1 (configuration not stated)
 : 2 | -1.9 | x | x | x
CCn1nc([N+](=O)[O-])c(C(C#N)c2nc3cc(C(F)(F)F)ccc3s2)c(Cl)c1=O (configuration not stated)
 : 10 | 3.7 | -1% | -44 | -12
CCCCCN(C(=O)NC(=O)NCCCC)S(C)(=O)=O
 : 13 | 0.6 | -5% | 0 | -11
COc1cccc(C(=O)Nc2ccncc2)c1
 : 2 | -0.1 | -4% | -4 | x
Cc1cc(=O)[nH]c(N/N=C/CCc2ccccc2)n1
 : 9 | -3.8 | -4% | 10 | x
Cc1cc(OCC(=O)NCCc2c[nH]c3ccccc23)c2c(C)c(C)c(=O)oc2c1
 : -5 | 8.4 | x | x | x
COc1ccc(/C(C)=N/NC(=O)c2nc(C)cc(C)n2)cc1
 : -6 | -0.2 | 2% | -2 | -5
COc1ccc(N=C2S/C(=C\c3ccc(N4CCOCC4)o3)C(=O)N2CCc2c[nH]c3ccccc23)cc1
 : u | 2.9 | 0% | -31 | -5
COc1ccc(-c2csc3ncnc(N4CCN(c5ccccc5OC)CC4)c23)cc1
 : 95 | 14 | x | x | x
CCCNC(=O)C1CC(=O)N(c2ccc(OCC)cc2)C1 (configuration not stated)
 : -2 | x | x | 6 | x
COc1ccccc1C(=O)Nc1ccnn1C1CCN(C)CC1
 : -2 | -13 | x | x | x
COc1cc(C)nc(NC(=S)N(C)C(=O)c2ccccc2)n1
 : -1 | -4.4 | u | x | x
O=C(COc1ncnc2cc([N+](=O)[O-])ccc12)N(CCc1ccccc1)Cc1ccccc1
 : 2 | 2.7 | -8% | 1 | -23
CCOC(=O)c1cc2ccccc2n1CC(=O)c1ccccc1
 : 20 | 0.0 | x | x | x

Continuation.
Under each structure – Mtb bLac sens | RecA intein inh | Mtb H37Rv | Arbovirus anti | YopH inh
CCC(=NCc1cccnc1)c1c(O)n(C2CCCCC2)c(=O)[nH]c1=O
 : 11 | -2.8 | 6% | -1 | -50
CS(=O)(=O)N(CC(=O)N1CCCC1)c1cccc(Cl)c1
 : 0 | 1.9 | -1% | 2 | -24
CCn1cc(CNCc2cn(C)nc2-c2ccc(C3CCCCC3)cc2)cn1
 : x | 1.9 | 3% | -31 | x
COc1cc(N2C(=O)CC3(CCCC3)CC2=O)cc(OC)c1OC
 : -7 | -2.8 | -11% | x | x
O=C(COc1ccc2c(c1)OCO2)Nc1ccc2c(c1)oc1ccccc12
 : 15 | -1.5 | >100µM* | -28 | -13
Cc1ccccc1-c1noc(C2CCCCC2)n1
 : -10 | 1.1 | -2% | -4 | 0
S=c1[nH]nc(CSCCOc2ccccc2)o1
 : -7 | 3.2 | -1% | x | x
Cc1ccccc1CNC(=O)Cn1cnc(S(=O)(=O)N2CCCC2)c1
 : -5 | 2.8 | x | x | x
CC(C)n1nc(C(=O)Nc2nc3ccccc3[nH]2)c2ccccc2c1=O
 : 62 | 0.6 | 14% | -15 | x
COC(=O)Nc1ccc(S(=O)(=O)N2CCC(C(=O)N3CCCCC3C)CC2)cc1 (configuration not stated)
 : -2 | 15 | -8% | 10 | x
CC1CN(CC(=O)Nc2ccc([N+](=O)[O-])cc2Br)CC(C)O1 (configuration not stated)
 : -8 | 0.7 | 3% | 8 | x
Oc1cc2c(cc1CN1CCN(c3ncccn3)CC1)OCO2
 : 0 | -3.8 | x | x | x
Cc1ccc(C23CC4CC(CC(NC(=O)NCCN(C)C)(C4)C2)C3)cc1
 : -3 | 1.7 | 8% | -27 | -17
CCOc1ccc(/C(O)=C2\C(=O)C(=O)N(CCOCCO)C2c2ccccc2OC)cc1 (configuration not stated)
 : 21 | x | -10% | 9 | -15
CCCC(=O)Nc1ccc(S(=O)(=O)N2CCC(c3nc4ccccc4[nH]3)CC2)cc1
 : -3 | 0.2 | x | x | x
COc1ccccc1-c1noc(CCCC(=O)Nc2ccc(C(N)=O)cc2)n1
 : -4 | -1.3 | -4% | x | x
Cc1ccc(N/N=C/C=C/c2ccco2)cc1
 : 99 | -57 | x | x | x
CCOc1ccc(NCC(=O)c2ccc(C)cc2)cc1
 : 95 | 2.6 | u | -10 | x
CCOc1ccc(OCCCC(=O)O)cc1
 : 4 | -1.4 | -10% | 1 | 0
O=C(NCc1ccc(F)cc1)C1CCC(CNc2c(N3CCOCC3)c(=O)c2=O)CC1 (configuration not stated)
 : -11 | -2.9 | -5% | x | x
COCC(C)NC(=O)c1nn(Cc2ccccc2)c(=O)c2ccccc12 (configuration not stated)
 : 0 | 2.0 | x | x | x
Cc1ccc(OCC(=O)Nc2ccc(S(=O)(=O)N3CCCC3)cc2)cc1
 : 0 | 3.3 | x | x | x
O=C(NCc1cccs1)C1CCCN(S(=O)(=O)c2cccs2)C1 (configuration not stated)
 : -7 | -12 | 1% | -3 | -28
CC(=O)Nc1ccc(S(=O)(=O)NC2(C(F)(F)F)NC(=O)N(C3CCCC3)C2=O)cc1 (configuration not stated)
 : 5 | -7.1 | -2% | -6 | 2
CCCc1cc(=O)[nH]c(SCC(=O)N(CCOC)c2c(N)n(Cc3ccccc3)c(=O)[nH]c2=O)n1
 : -5 | 1.3 | x | x | x
CCOC(=O)c1sc(-c2cccc(C(F)(F)F)c2)nc1O
 : 57 | -176 | 0% | x | x
N#C/C(=C\c1ccc(Cl)cc1)C(=O)NC1CC1
 : -9 | 6.1 | x | x | x
CCOc1ccc(-c2cc(C)[n+](CCc3ccc(OC)c(OC)c3)c(-c3ccc(OCC)cc3)c2)cc1
 : 100 | 3.4 | x | x | x
CCOc1ccc(NC(=O)CN(C)C(=O)c2ccc(NC3CC3)c([N+](=O)[O-])c2)cc1OCC
 : -6 | -0.5 | x | x | x
OC(COCC1COc2ccccc2O1)CN1CCN(c2ccccc2)CC1 (configuration not stated)
 : 31 | 0.6 | -3% | 3 | -23
CN1CCCN(C(=O)c2cccc(Cl)c2)CC1
 : -1 | 2.0 | x | x | x
CCC(=O)OCc1cc2cccc(C)c2[nH]c1=O
 : -2 | 1.9 | 21% | 9 | -13
COc1ccc(OCCC(=O)OCc2c(C)noc2C)cc1
 : 7 | -0.4 | 2% | 10 | -22
CC(=O)Nc1ccc(OCC(O)Cn2cccn2)cc1 (configuration not stated)
 : -6 | -0.1 | x | x | x
CCOc1ccc(C(=O)NCC(c2ccco2)N2CCc3ccccc3C2)cc1 (configuration not stated)
 : -3 | 7.2 | x | x | x
Cc1cc(C(=O)N2CCc3ccccc32)n(-c2ccccc2)n1
 : 0 | -4.8 | -2% | -19 | -22
CCOc1ccc(Oc2nc(NCC(C)C)nc(N(C)C)n2)nn1
 : -7 | 0.0 | 3% | 0 | 9
C[C@H](NC(=O)[C@@H]1Cc2ccccc2CN1)C(=O)NC1CCCCC1
 : -8 | -1.8 | x | x | x
Clc1ccc2oc(-c3ccccc3)nc2c1
 : -2 | 1.1 | -7% | 11 | -3

Not all compounds are listed, so the mix of outcomes need not match the whole.
